GLA inh pH 4.5 – blocks human alpha-galactosidase A at pH 4.5. purified enzyme, 4-MU-alpha-Gal fluorescence, pH 4.5. activity change, negative = inhibition, % at 105 µM. AID 1467. 230,000 tested, under 10 active; inconclusive = small, poorly fitted or top-dose-only inhibition, or a rising curve; inactive = flat fitted curve, though single readings scatter; no compound was filed as active;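 also: 0% = full activity with enzyme and -100% = basal without enzyme; dose as in the result columns while the protocol names 77 µM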
Target sequence (P06280 whole entry, looked up): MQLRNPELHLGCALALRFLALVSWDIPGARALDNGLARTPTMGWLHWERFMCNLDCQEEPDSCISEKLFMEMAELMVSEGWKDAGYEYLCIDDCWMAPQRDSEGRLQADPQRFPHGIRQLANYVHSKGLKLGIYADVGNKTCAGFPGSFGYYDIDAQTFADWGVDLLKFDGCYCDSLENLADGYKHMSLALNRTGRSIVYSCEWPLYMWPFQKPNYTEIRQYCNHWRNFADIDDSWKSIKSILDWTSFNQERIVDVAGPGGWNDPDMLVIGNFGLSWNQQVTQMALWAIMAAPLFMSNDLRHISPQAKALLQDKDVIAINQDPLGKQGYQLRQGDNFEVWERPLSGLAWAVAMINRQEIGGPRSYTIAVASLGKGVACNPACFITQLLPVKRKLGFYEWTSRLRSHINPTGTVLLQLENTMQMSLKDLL
Rango complex inh – Rango-importin beta binding inhibition; Rango CFP/YFP FRET sensor + importin beta, 45 min; actives 0.031% (n = 340,000); AID 540263; Potency, µM (titrated, usually from 92.2 µM), without a hit: at the highest dose inhibition of complex formation; Q14974; active = rising FRET ratio curve, often small or poorly fitted; inconclusive = mostly compound fluorescence or quenching in the first reads; inactive = flat curves in all reads;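 also: potency is read from the fitted curve at half-maximal effect; 0% = DMSO wells and 100% = buffer wells lacking importin beta; nearly all actives have a fitted effect of over 15% in size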
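Inhibition scored from the CFP 486 nm/YFP 530 nm FRET ratio 45 min after adding 0.125 microM importin beta to 50 nM Rango biosensor preincubated 5 min with compound (room temperature, PBS with DTT, Tween-20, BSA). No-importin wells as positive control.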
Rango release inh – inhibitors of RanGTP-induced Rango-importin beta complex dissociation. Biochemical FRET Rango-importin beta, RanGTP-induced dissociation. O95149+P62826. actives 0.071% (n = 340,000). Potency, µM (doses to about 46.1 µM), without a hit: at the top dose activity change, negative = inhibition; active means falling FRET ratio curve, often poorly fitted, with flat reads before Ran was added; inconclusive means other falling curves, or compound fluorescence or quenching; inactive means flat or rising ratio curve;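 also: potency is read from the fitted curve at half-maximal effect; % of control where 0% means no effect; nearly all actives have a fitted effect of over 45% in size; -100% = wells without RanGTP and RCC1; the record marks most hits as doubtful in a second field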
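FRET read at 45 min, room temperature: inhibitors block the CFP/YFP signal rise when RanGTP (0.6 uM Ran, 2 mM GTP, 0.2 uM RCC1) frees Rango (0.1 uM) from importin beta (0.25 uM). Pre-read after 5 min compound exposure flags interference.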
miR-21 reporter – raises the signal of a miR-21 reporter | HeLa miR-21 FLuc reporter, luciferase, 48 h | Potency, µM (doses to about 38.3 µM), for inactives: top-dose reporter change, positive = more light | 340,000 tested, under 10 active | AID 2288; active = well fitted rising curve with a large enough effect; inconclusive = small, poorly fitted or top-dose-only effect; inactive = no such curve, though single readings can be large or run the other way;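 also: % of control where 0% means no effect; miR-21 action dims this reporter so a rising signal means less miR-21 action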
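Luminescence from a firefly luciferase reporter carrying a miR-21 binding site downstream, stably expressed under a CMV promoter in HeLa cells that make miR-21 endogenously, reports miRNA modulation after 48 h compound exposure up to approximately 40uM final.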
Numbers without * were called inactive; ? = inconclusive; nt = not tested or not shown; & = joins results of further samples; [ ] = dose if it differs, or a comment.

# | compound | GLA inh pH 4.5 | Rango complex inh | Rango release inh | miR-21 reporter
1 | CC1CCC(NC(=O)C2CCN(S(=O)(=O)c3cccc4nonc34)CC2)CC1 (stereo not given) | nt | -3.3% | -10% | -3%
2 | CCn1ccnc1CN(C)C(=O)c1cc(COc2ccc(OC)c3ccccc23)on1 | nt | -1.7% | -5% | 0%
3 | CC1Cn2c(nnc2C23CC4CC(CC(C4)C2)C3)S1 (stereo not given) | 1 | -3.7% | -16% | -12%
4 | Fc1cccc(CNCC2CCCO2)c1 (stereo not given) | nt | -5.9% | 14% | 1%
5 | O=C(CSc1nnc(-c2ccc(F)cc2)o1)NC1CCCC1 | nt | 1.9% | 0% | -5%
6 | CCNc1nc(NC(C)C)nc(N(C#N)C(C)C(=O)N(C)C)n1 (stereo not given) | 10 | -3.3% | -3% | -11%
7 | CCOc1ccc(C(=O)Nc2cccc(C)n2)cc1 | -3 | -0.5% | -2% | 8%
8 | Cc1ccc(NC(=O)Cc2ccc(F)cc2)cc1 | -2 | -3.3% | 22% | -38%
9 | Cc1ccc(S(=O)(=O)NCCCNC(=O)OCc2ccccc2)cc1 | nt | -1.4% | 34% | nt
10 | Cc1ccc(-c2cc(C(=O)NCCc3ccccn3)c3ccccc3n2)c(C)c1 | 1 | -0.2% | 0% | 19%
11 | Cc1c(NC(=O)CSc2nnc(N)s2)c(=O)n(-c2ccccc2)n1C | 3 | 1.5% | -6% | -5%
12 | O=C(Cc1ccc([N+](=O)[O-])cc1)NCCc1ccc2c(c1)OCO2 | nt | -1.1% | 12% | nt
13 | COC(=O)C1CC2=C(CCCC2=O)N(c2ccccc2)C1=O (stereo not given) | nt | 0.3% | ? | nt
14 | O=C(COC(=O)c1cnccn1)Nc1cccc2ccccc12 | 2 | 3.8% | 16% | 1%
15 | CCCc1nnc(NC(=O)CCC(=O)N2CCN(Cc3ccc(OC)c(F)c3)CC2)s1 | nt | 1.0% | 0% | 15%
16 | Cc1ccc(NC(=O)c2cc([N+](=O)[O-])ccc2NCc2cccnc2)cc1 | -3 | 0.3% | 0% | -3%
17 | COc1cc(OC)c(OC)cc1CN1CCSCC1 | nt | -1.9% | 5% | -12%
18 | O=C1NCCCC1C(=O)N/N=C/c1cccc([N+](=O)[O-])c1 (stereo not given) | -2 | 0.0% | -15% | -1%
19 | O=C(CCn1c(=S)oc2ccccc21)Nc1cccc(O)c1 | -13 | 3.7% | -6% | -6%
20 | COc1cccc(OC)c1C(=O)Nc1ccc(C)cc1C(=O)c1ccccc1 | -7 | -3.7% | 3% | 8%
21 | COc1ccc(CCC(=O)Nc2ccc3c(c2)OCO3)cc1OC | nt | 2.5% | 0% | 1%
22 | O=C(NCCN1CCCCC1)Nc1ccc(Cl)cc1 | nt | -1.4% | 0% | -1%
23 | COc1cccc(NC(=O)c2ccccc2Br)c1 | nt | 3.1% | 6% | -53%
24 | CC(CNS(=O)(=O)c1ccc(Br)cc1)CN(C)C (stereo not given) | 1 | -1.5% | 25% | -5%
25 | CCc1noc(C)c1C(=O)NNC(=O)c1ccc(F)cc1 | nt | 1.7% | 11% | nt
26 | CCc1ccc(N(CC(=O)NC(C)C)C(=O)CCC(=O)Nc2ccccn2)cc1 | nt | 2.9% | -4% | -1%
27 | COc1ccc(N2CCN(C(=O)CN3C(=O)c4ccccc4S3(=O)=O)CC2)cc1 | 0 | 0.0% | 7% | 0%
28 | O=C(NC1CCN(Cc2ccccc2)CC1)c1ccccc1OCc1ccccc1Cl | nt | 4.9% | 0% | 12%
29 | O=C(CSCc1ccc(Br)cc1)NCCc1ccccc1 | nt | 0.6% | -7% | -8%
30 | COc1cccc(-n2cc(C(=O)NCCCOC(C)C)c3ccccc3c2=O)c1 | nt | -0.4% | 1% | 7%
31 | Cc1onc(-c2ccccc2Cl)c1C(=O)N(Cc1nc(-c2ccccc2)no1)C1CCCCC1 | -14 | 0.4% | 3% | 21%
32 | COc1cccc(-c2nc(=S)c3c(n2CCCO)CCCC3)c1 | -8 | 2.6% | -14% | -7%
33 | CCOC(=O)c1c(CSc2ccccc2)oc2cc(Br)c(O)c(CN(C)C)c12 | 2 | -0.3% | 17% | 5%
34 | CN(CC(=O)Nc1cccc(F)c1)C(=O)c1ccc(NC2CC2)c([N+](=O)[O-])c1 | nt | 1.2% | -3% | nt
35 | Fc1cccc(F)c1-n1c(CN2CCOCC2)csc1=S | -5 | 2.1% | 21% | -3%
36 | O=C(c1cc2ccccc2oc1=O)N1CCN(Cc2ccc3c(c2)OCO3)CC1 | -4 | -8.0% | -23% | -8%
37 | CC1CCN(S(=O)(=O)c2ccc3c(c2)oc(=O)n3CC(=O)N2c3ccccc3CC2C)CC1 (stereo not given) | 1 | ? | 35% | -14%
38 | CC(=O)Nc1ccc(S(=O)(=O)NCCC(=O)NCc2ccncc2)cc1 | nt | -0.6% | -6% | nt
39 | CCCCC(=O)Nc1ccc(NC(=O)CC)cc1OC | 0 | -0.4% | 7% | -5%
40 | COc1c(N2CCN(C(=S)Nc3ccccc3)C(C)C2)c(F)cc2c(=O)c(C(=O)O)cn(C3CC3)c12 (stereo not given) | 6 | nt | nt | 1%
41 | COc1ccc2[nH]c(=O)c(CN(CC3CCCO3)C(=S)Nc3ccc(C)cc3)cc2c1 (stereo not given) | -15 | 0.6% | ? | 2%
42 | O=C(Nc1nnc(S(=O)(=O)N2CCCCCC2)s1)c1ccccc1Br | nt | -4.6% | 1% | -3%&-21%
43 | COCCNC(=O)COC(=O)c1nsc(Cl)c1Cl | 12 | -4.1% | 1% | -5%
44 | CCOC(=O)c1ccc(S(=O)(=O)NNC(=O)c2cccc(N(C)C)c2)cc1 | 6 | -4.1% | 2% | -13%
45 | Cc1cccc(NC(=O)CSCC(=O)Nc2ccc(S(=O)(=O)N3CCOCC3)cc2)c1 | nt | -1.3% | -7% | nt
46 | Cn1c(NCc2cccc(Br)c2)nc2ccccc21 | -25 | 2.4% | -11% | -33%
47 | NC(=O)c1ccccc1OCCOc1ccc(Br)cc1 | nt | -0.2% | 0% | -14%
48 | COCCCn1c(Cc2csc(Nc3cccc(Cl)c3)n2)nnc1SCC(=O)OC | 3 | 3.0% | -18% | 0%
49 | O=C(CN(c1ccc(F)cc1)S(=O)(=O)c1ccccc1)NC1CCCCCC1 | nt | 0.5% | 4% | -2%
50 | CNC(=O)c1cn(-c2ccc(Cl)cc2)c(=O)c2ccccc12 | -3 | -1.1% | 17% | 9%
51 | COc1ccc(OCCSc2nnc(C(C)NC(=O)c3ccccc3F)n2C)cc1 (stereo not given) | -11 | -1.1% | 23% | 0%
52 | O=CN1CCN(C(=O)c2cccc([N+](=O)[O-])c2)CC1 | nt | ? | -7% | 2%
53 | O=C1NC(=O)/C(=C/c2cccc(O)c2)N1 | 7 | -2.2% | -5% | -9%
54 | CSCC(C)N1CCC(CO)(CCc2ccccc2)CC1 (stereo not given) | -5 | -0.2% | 1% | -2%
55 | CCOc1ccc(C2C3=C(CCCC3=O)OC(N)=C2[N+](=O)[O-])cc1 (stereo not given) | 4 | -2.4% | 10% | 2%
56 | FC(F)(F)c1cccc(CON=C2CCN(c3ncc(C(F)(F)F)cc3Cl)CC2)c1 | -24 | 3.4% | 0% | 2%

Other structures follow:
# | compound | GLA inh pH 4.5 | Rango complex inh | Rango release inh | miR-21 reporter
57 | Cc1onc(-c2c(F)cccc2Cl)c1C(=O)N(C)CC(=O)Nc1cccc(F)c1 | nt | 0.1% | 1% | nt
58 | CC(C)(CNC(=O)CNC(=O)c1ccc(Cl)cc1Cl)N1CCOCC1 | nt | -2.5% | 5% | nt
59 | CCN(CC(=O)Nc1c(F)cccc1F)C(=O)COc1cccc2c1OC(C)(C)C2 | nt | 2.7% | 3% | nt
60 | Cc1ccc(C(=O)NCC(=O)NNC(=O)CN(C)S(=O)(=O)c2ccc(Cl)cc2)s1 | nt | 1.9% | 10% | nt
61 | COC(=O)c1sccc1NC(=S)N1CCN(c2ccc(F)cc2)CC1 | -17 | -0.7% | -9% | -10%
62 | CCc1ccc(NC(=O)c2noc(C(C)C)c2[N+](=O)[O-])cc1 | 0[21.1 µM] | -0.4% | 14% | -21%
63 | O=[N+]([O-])c1cccc(C(O)C23CN4CN(CN(C4)C2)C3)c1 (stereo not given) | -3 | 8.4% | 2% | 0%
64 | COc1cc(/C=N/N=C2/NC(=O)C(c3ccccc3)S2)ccc1O (stereo not given) | -3 | ? | 1% | -29%
65 | Cc1ccc(NC(=O)CCc2nnc3ccc(N4CCC5(CC4)OCCO5)nn23)cc1F | nt | 0.7% | 1% | 0%
66 | Oc1oc(-c2ccc(Br)cc2)nc1/C=N/c1ccccn1 | -3 | 1.4% | -7% | -48%
67 | CN(CC(=O)Nc1ccccc1Cl)C(=O)C1CCN(C(=O)c2ccc(Cl)cc2)CC1 | nt | 3.2% | 3% | 2%
68 | CN(CCNC(=O)C1CCC(=O)N(Cc2cccc(F)c2)C1)CCc1ccccc1 (stereo not given) | nt | 0.1% | -1% | -2%
69 | Cc1cc(Nc2cccc(Cl)c2)c2ccccc2n1 | nt | 1.3% | 18% | ?
70 | CCCn1c(SCC(N)=O)nnc1C(C)C | 11 | -0.4% | 10% | -7%
71 | CN1CCN(c2ccccc2NC(=O)COc2ccccc2)CC1 | -1 | 1.5% | -12% | 0%
72 | CC(NC(=O)NC(=O)c1cccc([N+](=O)[O-])c1)C1CC1 (stereo not given) | nt | 5.2% | 8% | -10%
73 | O=C(N/N=C/C=C/c1ccccc1)c1ccccc1Br | 11 | 1.9% | 14% | -40%
74 | CC(=O)N1CCOc2ccc(S(=O)(=O)NCC3CCC(C(=O)Nc4ncccc4C)CC3)cc21 (stereo not given) | nt | -0.1% | 5% | 9%
75 | CC(C)Oc1cccc(C(=O)C2CCCN(C(=O)c3noc4c3CCCC4)C2)c1 (stereo not given) | -2 | -0.6% | -6% | -4%
76 | COc1cc(C(=O)Nc2nccs2)ccc1OCc1c(C)noc1C | -4 | -3.3% | 2% | 0%
77 | Cc1ccc(C(=O)/C=C/Nc2ccc(S(=O)(=O)Nc3cc(C)nc(C)n3)cc2)cc1 | nt | ? | ? | -23%
78 | O=C(CCC1CCCN(C(=O)c2ccc(F)c(F)c2)C1)N1CCN(c2ccccn2)CC1 (stereo not given) | nt | 0.4% | 2% | 6%
79 | COC(=O)N1C(=O)[C@](c2ccccc2)(C2CCCC2)N1C(=O)OC | nt | -0.3% | 4% | 3%
80 | NS(=O)(=O)c1ccc(CCNC(=O)C2CCN(S(=O)(=O)c3cccc4cccnc34)CC2)cc1 | nt | -15% | 17% | 2%
81 | CC1=CC(=O)OC1Cc1ccncc1 (stereo not given) | 2 | 2.0% | -16% | 2%
82 | COC(=O)CC1SCCNC1=O (stereo not given) | 1 | 3.2% | 0% | -8%
83 | CCOC(=O)C1CCN(CC(O)COc2ccc(C(=O)CC)cc2)CC1 (stereo not given) | -8 | 0.3% | -1% | -3%
84 | Cc1cccc(C(=O)OC2CCN(C)CC2)c1 | -3 | 3.5% | 12% | -3%
85 | Cc1c2cnn(CC(=O)NCc3ccccn3)c(=O)c2c(C)n1Cc1ccccc1 | nt | 3.6% | -8% | -1%
86 | Cc1cc(C)cc(OCC(=O)OCC(=O)NCc2cccs2)c1 | -2 | 1.5% | 3% | 4%
87 | Cc1ccccc1NC(=O)c1c(-c2ccccc2)noc1C | -5 | 2.4% | -6% | 0%
88 | COCCc1nnc(NC(=O)C23CC4CC(CC(C4)C2)C3)s1 | nt | -2.6% | -1% | 1%
89 | O=C(O)CSc1nc(-c2ccccc2)nc2c1CCCC2 | -6 | -2.7% | 8% | 7%
90 | NC(=O)c1cc2cc(Br)ccc2o/c1=N/NC(=O)c1cccc(F)c1 | nt | -1.7% | -3% | -1%
91 | CCCCC(=O)Nc1ccc(NC(=O)c2ccc(C)c([N+](=O)[O-])c2)cc1OC | -7 | 2.6% | -11% | 0%
92 | Cc1sc2nc(SCC(=O)NCc3ccco3)n(CCc3ccccc3)c(=O)c2c1C | 2 | -2.6% | -6% | -4%
93 | O=C(CN(C1CCCCC1)S(=O)(=O)c1ccccc1)NCC1CCCO1 (stereo not given) | nt | 1.2% | 13% | -1%

Screens from PubChem BioAssay.

The list is partial; the hit share may differ from the screen's.
